Screening results (PubChem BioAssay)
miR-21 FLuc – qHTS Assay for Modulators of miRNAs and/orActivators of miR-21 | HeLa miR-21 FLuc reporter, luciferase, 48 h | Potency, µM (titrated, usually from 38.3 µM), inactives show at the top dose reporter change, positive = more light | 340,000 tested, under 10 active | AID 2288, 2010; active = well fitted rising curve with a large enough effect; inconclusive = small, poorly fitted or top-dose-only effect; inactive = no such curve, though single readings can be large or run the other way;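 also: % of control where 0% means no effect; miR-21 action dims this reporter so a rising signal means less miR-21 action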
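HeLa miR-21-FLuc reporter line, endogenous miR-21; 2000 cells/well in DMEM/10% FBS; compound titration up to ~40uM final, 48 h, 37 degree Celsius; luciferase detection reagent, 15 min lysis, CCD luminescence.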
Rango dissoc inh – qHTS Assay for Inhibitors of RanGTP induced Rango (Ran-regulated importin-beta cargo) - Importin beta complex dissociation. Snurportin-1 (Homo sapiens) + GTP-binding nuclear protein Ran (Homo sapiens) + Importin …. Biochemical FRET Rango-importin beta, RanGTP-induced dissociation. Potency, µM (titrated, usually from 46.1 µM), inactives show top-dose activity change, negative = inhibition. 340,000 compounds, 0.071% hits. AID 540253, 2011; active means falling FRET ratio curve, often poorly fitted, with flat reads before Ran was added; inconclusive means other falling curves, or compound fluorescence or quenching; inactive means flat or rising ratio curve;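 also: potency is read from the fitted curve at half-maximal effect; % of control where 0% means no effect; nearly all actives have a fitted effect of over 45% in size; -100% = wells without RanGTP and RCC1; the record marks most hits as doubtful in a second field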
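Quantitative HTS using a FRET biosensor: 0.1 uM Rango, 0.25 uM importin beta, 0.6 uM Ran, 2 mM GTP, 0.2 uM RCC1 final, PBS with DTT, Tween-20 and BSA. Post-read taken 45 min after Ran addition.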
Rango-impB inh – qHTS Assay for Inhibitors of Rango (Ran-regulated importin-beta cargo) - Importin beta complex formation. Importin subunit beta-1 (Homo sapiens), Q14974. Rango CFP/YFP FRET sensor + importin beta, 45 min. Potency, µM (highest dose often 92.2 µM), for inactives: at the top dose inhibition of complex formation. 340,000 compounds, 0.031% hits. AID 540263, 2011; active = rising FRET ratio curve, often small or poorly fitted; inconclusive = mostly compound fluorescence or quenching in the first reads; inactive = flat curves in all reads;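 also: potency is read from the fitted curve at half-maximal effect; 0% = DMSO wells and 100% = buffer wells lacking importin beta; nearly all actives have a fitted effect of over 15% in size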
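Inhibition scored from the CFP 486 nm/YFP 530 nm FRET ratio 45 min after adding 0.125 microM importin beta to 50 nM Rango biosensor preincubated 5 min with compound (room temperature, PBS with DTT, Tween-20, BSA). No-importin wells as positive control.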
GLA inh pH 4.5 – qHTS Assay for Inhibitors of Human alpha-Galactosidase at pH 4.5 | purified enzyme, 4-MU-alpha-Gal fluorescence, pH 4.5 | activity change, negative = inhibition, % at 105 µM | 230,000 tested, under 10 active | AID 1467, 2008; inconclusive = small, poorly fitted or top-dose-only inhibition, or a rising curve; inactive = flat fitted curve, though single readings scatter; no compound was filed as active;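 also: 0% = full activity with enzyme and -100% = basal without enzyme; dose as in the result columns while the protocol names 77 µM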
Target sequence (P06280 whole entry, looked up): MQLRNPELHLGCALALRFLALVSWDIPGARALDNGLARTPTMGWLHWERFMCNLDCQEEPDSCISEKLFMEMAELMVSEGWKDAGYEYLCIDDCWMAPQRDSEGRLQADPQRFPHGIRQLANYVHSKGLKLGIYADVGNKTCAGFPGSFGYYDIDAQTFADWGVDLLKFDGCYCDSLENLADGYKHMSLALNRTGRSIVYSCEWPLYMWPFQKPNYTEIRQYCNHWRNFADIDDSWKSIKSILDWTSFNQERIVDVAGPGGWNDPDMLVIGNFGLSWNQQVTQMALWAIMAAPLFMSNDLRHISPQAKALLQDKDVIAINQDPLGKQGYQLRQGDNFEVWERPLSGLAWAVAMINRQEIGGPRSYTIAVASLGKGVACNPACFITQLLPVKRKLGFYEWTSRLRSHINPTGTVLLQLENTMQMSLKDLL
An asterisk follows results filed as active. An excerpt. The share of hits here may be higher or lower than overall.

How did CC1(c2ccccc2)NC(=O)N(CC(=O)Nc2cc(Cl)ccc2N2CCOCC2)C1=O (configuration not stated) do in these assays?
Rango dissoc inh: 1%; Rango-impB inh: -1.0%

Results for c1cncc(-c2nnc(SCc3cccc4ccccc34)o2)c1 ?
miR-21 FLuc: -27%; Rango dissoc inh: -6%; Rango-impB inh: -3.2%; GLA inh pH 4.5: -5

How did COc1ccccc1CN1CN(S(=O)(=O)c2ccccc2)c2nc3ccccc3nc21 do in these assays?
miR-21 FLuc: -32%; Rango dissoc inh: 4%; Rango-impB inh: -3.8%; GLA inh pH 4.5: -2

What do the screens show for `Cc1ccc(S(=O)(=O)N2CCC(C(N)=O)CC2)cc1C(=O)NC1CCCCC1`?
Rango dissoc inh: -10%; Rango-impB inh: 2.9%

What do the screens show for `O=C(CN1CCC(C(=O)c2ccc3c(c2)OCCO3)CC1)NCc1ccc(F)cc1`?
miR-21 FLuc: 15%; Rango dissoc inh: 4%; Rango-impB inh: -1.6%

Results for CCCCNC(=O)Cn1nc(Cc2ccncc2)c2ccccc2c1=O ?
miR-21 FLuc: -4%; Rango dissoc inh: -8%; Rango-impB inh: inconclusive

How did O=C(N=C1SC2CS(=O)(=O)CC2N1c1ccccc1F)C1CCCCC1 (configuration not stated) do in these assays?
miR-21 FLuc: 0%; Rango dissoc inh: 0%; Rango-impB inh: -1.2%

How did CCOc1ccc(Cc2nnc(SCC(=O)Nc3c(C)cccc3C)[nH]c2=O)cc1 do in these assays?
Rango dissoc inh: -8%; Rango-impB inh: 2.8%

How did CC(=O)Nc1ccc(-c2cc(N)n(-c3ccccc3)n2)cc1 do in these assays?
miR-21 FLuc: -57%; Rango dissoc inh: 0%; Rango-impB inh: -1.0%; GLA inh pH 4.5: 8

Results for Cc1nn(C)c(C(=O)NN)c1Cl ?
miR-21 FLuc: 5%; Rango dissoc inh: -26%; Rango-impB inh: 1.3%; GLA inh pH 4.5: 0

Results for COc1cc(NC(=O)c2cccc(C)c2)c(OC)cc1NC(=O)CN1CCOCC1 ?
miR-21 FLuc: -2%; Rango dissoc inh: 25%; Rango-impB inh: -3.1%; GLA inh pH 4.5: -5

What do the screens show for `CCOc1ccc(/C=N/n2nnnc2N)cc1OCC`?
miR-21 FLuc: -11%; Rango dissoc inh: -12%; Rango-impB inh: -3.7%

In the list so far, two have fluorine.
What do the screens show for `O=C(CN1CCC(C(=O)c2ccc3c(c2)OCCO3)CC1)NCc1ccc(F)cc1`?
miR-21 FLuc: 15%; Rango dissoc inh: 4%; Rango-impB inh: -1.6%

How did O=C(N=C1SC2CS(=O)(=O)CC2N1c1ccccc1F)C1CCCCC1 (configuration not stated) do in these assays?
miR-21 FLuc: 0%; Rango dissoc inh: 0%; Rango-impB inh: -1.2%

The list continues.
How did FC(F)C(F)(F)C(F)(F)C(F)(F)c1cc(-c2ccccc2)n[nH]1 do in these assays?
miR-21 FLuc: 7%; Rango dissoc inh: -1%; Rango-impB inh: -2.3%; GLA inh pH 4.5: -10

What do the screens show for `CCOc1ccc(N2C(=O)C(CC(=O)Nc3ccccc3)N(Cc3ccccn3)C2=S)cc1` (configuration not stated)?
miR-21 FLuc: 18%; Rango dissoc inh: -5%; Rango-impB inh: 0.7%; GLA inh pH 4.5: -11

What do the screens show for `Cc1cc(C)c2c(N)c(C(=O)NNC(=O)c3ccccc3)sc2n1`?
miR-21 FLuc: -54%; Rango dissoc inh: 0%; Rango-impB inh: -5.4%; GLA inh pH 4.5: -23

How did Cc1cnc(NC(=O)/C=C/c2ccc(Br)o2)s1 do in these assays?
miR-21 FLuc: -26%; Rango dissoc inh: -6%; Rango-impB inh: -0.4%; GLA inh pH 4.5: 4

How did Clc1ccccc1Cn1c(/C=C/c2ccco2)nc2ccccc21 do in these assays?
miR-21 FLuc: -1%; Rango dissoc inh: -11%; Rango-impB inh: inconclusive; GLA inh pH 4.5: -9

What do the screens show for `O=c1c(Cc2c(F)cccc2Cl)c(O)ccn1CCc1c[nH]c2ccccc12`?
miR-21 FLuc: -3%; Rango dissoc inh: -17%; Rango-impB inh: -2.7%; GLA inh pH 4.5: 2

Results for C=CCn1c(SCc2nnc(-c3ccccc3)o2)nnc1C(O)c1ccccc1 (configuration not stated) ?
miR-21 FLuc: -10%; Rango dissoc inh: 1%; Rango-impB inh: inconclusive; GLA inh pH 4.5: 4

What do the screens show for `COc1ccc2oc(C(=O)NCCN3CCOCC3)c(C)c2c1OC`?
miR-21 FLuc: -56%; Rango dissoc inh: 0%; Rango-impB inh: -1.0%

What do the screens show for `COC(=O)[C@@H](NC(=O)NC1CCN(Cc2ccccc2)CC1)C(C)C`?
miR-21 FLuc: 0%; Rango dissoc inh: 16%; Rango-impB inh: -2.8%; GLA inh pH 4.5: 2

What do the screens show for `O=C(Nc1cccnc1Cl)c1cc(-c2cccc(O)c2)on1`?
miR-21 FLuc: -67%; Rango dissoc inh: 2%; Rango-impB inh: 1.5%

How did CCOC(=O)c1ccc(NC(=O)C2C3CCCCC32)cc1 (configuration not stated) do in these assays?
miR-21 FLuc: -46%; Rango dissoc inh: 11%; Rango-impB inh: -3.6%

What do the screens show for `O=C(Nc1ccc([N+](=O)[O-])cc1)c1cncc(Br)c1`?
miR-21 FLuc: 5%; Rango dissoc inh: 0%; Rango-impB inh: -2.5%; GLA inh pH 4.5: 4

How did Cc1ccc(NC(=O)CN(C)C(=O)Cn2cc(C(F)(F)F)ccc2=O)cc1 do in these assays?
miR-21 FLuc: 0%; Rango dissoc inh: -7%; Rango-impB inh: -1.6%; GLA inh pH 4.5: -7

What do the screens show for `O=C(Nc1ccccc1F)c1ccc2c(c1)CCN2S(=O)(=O)c1ccccc1`?
miR-21 FLuc: -16%; Rango dissoc inh: 4%; Rango-impB inh: 3.7%

How did O=C(/C=C/c1c(F)cccc1Cl)NCc1ccco1 do in these assays?
miR-21 FLuc: -48%; Rango dissoc inh: 43%; Rango-impB inh: 1.8%; GLA inh pH 4.5: -4

What do the screens show for `COc1ccc(S(=O)(=O)N/N=C(/C)c2cccc(NC(=O)c3ccccc3Cl)c2)cc1`?
miR-21 FLuc: -1%; Rango dissoc inh: 2%; Rango-impB inh: -0.8%; GLA inh pH 4.5: -4

How did NS(=O)(=O)c1ccc(CCNC(=O)CN2CCCCC2)cc1 do in these assays?
miR-21 FLuc: 0%; Rango dissoc inh: -6%; Rango-impB inh: -0.1%; GLA inh pH 4.5: -15

Results for Cc1cccc(N(C)C(=O)c2cc3c(=O)[nH]c4ccc(C)cc4c3s2)c1 ?
miR-21 FLuc: 23%; Rango dissoc inh: -11%; Rango-impB inh: 0.1%; GLA inh pH 4.5: 1

Results for O=C(CCc1ccco1)CCc1ccco1 ?
Rango dissoc inh: 9%; Rango-impB inh: -0.4%

Results for CN(c1cccc(NC(=O)c2cccc([N+](=O)[O-])c2)c1)S(C)(=O)=O ?
miR-21 FLuc: -3%; Rango dissoc inh: 7%; Rango-impB inh: -3.0%; GLA inh pH 4.5: 0

What do the screens show for `CCOC(=O)Nc1cccc(C(=O)O)c1`?
miR-21 FLuc: -34%; Rango dissoc inh: -1%; Rango-impB inh: -1.1%; GLA inh pH 4.5: -12

What do the screens show for `Cc1cc(C(=O)O)oc(=O)c1`?
miR-21 FLuc: -6%; Rango dissoc inh: 1%; Rango-impB inh: 1.9%; GLA inh pH 4.5: 8

What do the screens show for `O=[N+]([O-])c1ccc2[nH]c(=S)sc2c1`?
Rango dissoc inh: inconclusive; Rango-impB inh: inconclusive

Results for COc1ccc(S(=O)(=O)N2CCCCC2)cc1NC(=O)C1CC(=O)N(Cc2ccco2)C1 (configuration not stated) ?
Rango dissoc inh: -3%; Rango-impB inh: -1.2%

Results for CCCC(CCC(=O)Nc1ccc(S(N)(=O)=O)cc1)C(=O)O (configuration not stated) ?
miR-21 FLuc: -2%; Rango dissoc inh: 0%; Rango-impB inh: 1.5%; GLA inh pH 4.5: -7

How did Cc1ccc(OCC(=O)Nc2ccccc2C(=O)N2CCCC2)cc1 do in these assays?
miR-21 FLuc: 9%; Rango dissoc inh: -14%; Rango-impB inh: 5.1%

Results for CC(C)Oc1ccc(CCC(=O)NNC(=O)CCC(=O)O)cc1 ?
miR-21 FLuc: 7%; Rango dissoc inh: 1%; Rango-impB inh: -0.9%; GLA inh pH 4.5: -1

How did CCOC(=O)N1CCC(NCCNC(=O)c2ccccc2Cl)CC1 do in these assays?
miR-21 FLuc: 0%; Rango dissoc inh: 2%; Rango-impB inh: 7.2%; GLA inh pH 4.5: -2

What do the screens show for `CCN(CC)C(=O)C1CCN(c2ncnc3c2cnn3-c2ccc(C)cc2C)CC1`?
miR-21 FLuc: -5%; Rango dissoc inh: 5%; Rango-impB inh: -0.5%; GLA inh pH 4.5: 0

What do the screens show for `COc1ccc(NC(=O)CC2C(=O)N(c3cccc(OC)c3)C(=O)N2C2CCCCC2)cc1` (configuration not stated)?
miR-21 FLuc: 4%; Rango dissoc inh: 2%; Rango-impB inh: -2.4%; GLA inh pH 4.5: -10

How did COCCCNC(=O)CN(c1cc(Cl)cc(Cl)c1)S(C)(=O)=O do in these assays?
miR-21 FLuc: -4%; Rango dissoc inh: 4%; Rango-impB inh: 0.5%; GLA inh pH 4.5: -3

Results for O=C1N(Cc2cccnc2)C[C@@H]2C[C@@H](c3ccccc3C(F)(F)F)N3CCC[C@@]123 ?
miR-21 FLuc: 0%; Rango dissoc inh: -16%; Rango-impB inh: 4.7%; GLA inh pH 4.5: -1

Results for O=C(CCN1C(=O)c2ccccc2S1(=O)=O)Nc1nc2c(s1)CCCC2 ?
miR-21 FLuc: -33%; Rango dissoc inh: -4%; Rango-impB inh: 0.3%; GLA inh pH 4.5: 1

Results for Cc1ccc(C)c(CN2CCCNC2=O)c1 ?
miR-21 FLuc: -26%; Rango dissoc inh: 13%; Rango-impB inh: 1.2%

How did COc1ccc2nc(NC(=O)C3=NN(c4ccccc4)C(=O)CC3)sc2c1 do in these assays?
miR-21 FLuc: -13%; Rango dissoc inh: 9%; Rango-impB inh: 3.4%; GLA inh pH 4.5: -5

Results for COc1cnc(-c2ccccc2)nc1Oc1ccc(Cl)cc1C ?
miR-21 FLuc: 2%; Rango dissoc inh: -4%; Rango-impB inh: 1.3%; GLA inh pH 4.5: 3

Results for C#CCOCCOCCOCCNc1nc(N2CCN(C(=O)[C@H](CCCCN)n3cc(CN)nn3)CC2)nc(N2CCN(C(=O)[C@H](CCCN=C(N)N)n3cc(C(N)[C@H](C)CC)nn3)CC2)n1 (some centres not stated) ?
Rango dissoc inh: -7%; Rango-impB inh: 9.5%

Results for O=C1CCCC2=C1C(c1cccs1)n1ncnc1N2 (configuration not stated) ?
miR-21 FLuc: -1%; Rango dissoc inh: -1%; Rango-impB inh: -3.6%; GLA inh pH 4.5: -2

Results for O=[N+]([O-])c1cccc(N=NN(CCO)c2cccc([N+](=O)[O-])c2)c1 ?
miR-21 FLuc: 1%; Rango dissoc inh: 0%; Rango-impB inh: -2.0%; GLA inh pH 4.5: -3

What do the screens show for `O=C(NCc1ccco1)c1cc([N+](=O)[O-])ccc1N1CCCCC1`?
miR-21 FLuc: 2%; Rango dissoc inh: 1%; Rango-impB inh: 3.3%; GLA inh pH 4.5: 5

How did O=C(Oc1cc(-c2ccccc2)no1)c1ccc(Cl)cc1 do in these assays?
miR-21 FLuc: 1%; Rango dissoc inh: 61%; Rango-impB inh: inconclusive; GLA inh pH 4.5: 3

How did c1ccc(C2CCC(N3CCNCC3)CC2)cc1 (configuration not stated) do in these assays?
miR-21 FLuc: -9%; Rango dissoc inh: 11%; Rango-impB inh: -0.1%; GLA inh pH 4.5: -2

What do the screens show for `COc1ccc(-n2nc3c(c2NC(=O)CCCCl)CSC3)cc1`?
miR-21 FLuc: -27%; Rango dissoc inh: -13%; Rango-impB inh: 4.6%
